Yeast UUG start – modulators of yeast start codon fidelity, primary screen, whole organism, S. cerevisiae, single point, plate reader; S. cerevisiae UUG-firefly luciferase reporter, luminescence/redox ratio; activity score, % at 18.7 µM; 350,000 tested, 0.13% active; AID 602363, 2012;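 active means replicate mean at a twofold rise or more, about +100% in these data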;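 further: firefly luciferase made from a UUG start codon reports start codon fidelity; reporter light over untreated wells divided by growth signal over untreated wells; some hits fall short of that in this replicate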
The depositor's hits bear a star.

SMILES	Yeast UUG start
C[C@@H]1CN([C@H](C)CO)C(=O)c2cc(NC(=O)Cc3cn(C)c4ccccc34)ccc2O[C@H]1CN(C)C(=O)Nc1cccc2ccccc12	-16
COc1ccc(NC(=O)N(C)C[C@@H]2Oc3ccc(NC(=O)C4CCCCC4)cc3C(=O)N([C@@H](C)CO)C[C@@H]2C)cc1	1
O=C(c1ccccn1)N1C[C@H]2[C@@H](c3ccccc31)[C@H](CO)N2C(=O)C1CC1	-9
C[C@H](CO)N1C[C@H](C)[C@H](CN(C)Cc2ccc3c(c2)OCO3)Oc2c(NS(=O)(=O)c3ccccc3)cccc2C1=O	4
C[C@@H]1CN([C@@H](C)CO)C(=O)Cc2cc(NC(=O)Cc3ccccc3)ccc2O[C@@H]1CN(C)S(=O)(=O)c1ccc(Cl)cc1	-8
C[C@@H]1CN([C@H](C)CO)C(=O)Cc2cc(NC(=O)CCN3CCOCC3)ccc2O[C@@H]1CN(C)C(=O)Nc1ccccc1	-10
COCC(=O)Nc1ccc2c(c1)[C@@H]1C[C@H](CC(=O)NCc3ccncc3)O[C@@H](CO)[C@@H]1O2	-12
COc1cccc(-c2ccc3c(c2)[C@@H]2[C@@H](CCN2C(=O)c2cccc(F)c2)[C@@H](CO)N3)c1	-27
OC[C@H]1[C@@H](c2ccc(Br)cc2)[C@H]2CN(Cc3ccccn3)CCCCN21	-29
COCC(=O)Nc1ccc2c(c1)C(=O)N(C)C[C@@H](OC)[C@H](C)CN(Cc1ccccc1F)[C@@H](C)CO2	6
CNC[C@@H]1Oc2ccc(NS(=O)(=O)c3ccc(F)cc3)cc2CC(=O)N([C@H](C)CO)C[C@@H]1C	-7
CN1c2ccc(-c3ccc(C#N)cc3)cc2[C@@H]2[C@@H](CCN2S(=O)(=O)c2ccc(F)cc2)[C@@H]1CO	-3
O=C(Nc1ccc(F)cc1)N1CCCCN2[C@H](CO)[C@@H](c3ccc(-c4cccc(F)c4)cc3)[C@H]2C1	19
CCCNC(=O)NC[C@@H]1[C@H](c2ccc(C3=CCCC3)cc2)[C@@H](CO)N1C(=O)CC	37
COc1cccc(-c2ccc3n(c2=O)C[C@@H]2[C@@H](CO)[C@H](C(=O)NC4CCC4)[C@H]3N2C)c1	-10
CC(C)NC(=O)Nc1cccc2c1O[C@@H](CN(C)S(=O)(=O)c1ccccc1)[C@H](C)CN([C@@H](C)CO)C2=O	3
CN(C)CC#Cc1ccc([C@@H]2[C@H](CO)N3CCCCN(CC4CC4)C[C@@H]23)cc1	30
CNC[C@@H]1Oc2ccc(NS(=O)(=O)c3ccccc3)cc2C(=O)N([C@@H](C)CO)C[C@@H]1C	-9
C[C@@H]1CN([C@H](C)CO)C(=O)Cc2cc(NC(=O)Cc3ccccc3)ccc2O[C@@H]1CN(C)C(=O)Nc1ccc(F)cc1	-6
CN(C)C(=O)c1ccc(-c2ccc3c(c2)[C@@H]2[C@@H](CCN2S(=O)(=O)c2ccccc2)[C@@H](CO)N3)cc1	-2
COc1ccc(C(=O)Nc2ccc3c(c2)C(=O)N(C)C[C@H](OC)[C@@H](C)CN(C(C)=O)[C@@H](C)CO3)cc1	-3
O=C(C[C@@H]1C[C@H]2c3cc(NC(=O)NC4CCCC4)ccc3O[C@H]2[C@H](CO)O1)NCc1ccc(-c2ccccc2)cc1	-9
Cn1cnc(CCNC(=O)C[C@H]2CC[C@@H]3[C@H](COC[C@H](O)CN3C(=O)Nc3ccc(F)cc3)O2)c1	-7
CCC(=O)N1CCCCN2[C@H](CO)[C@@H](c3ccc(/C=C/c4ccccc4)cc3)[C@@H]2C1	5
O=C(Cc1ccccn1)N1[C@@H]2CNc3ccccc3[C@@H]2[C@@H]1CO	15
C[C@@H]1CN([C@@H](C)CO)C(=O)c2cccc(NC(=O)c3nc4ccccc4s3)c2O[C@@H]1CN(C)CC1CCCCC1	1
O=C(C[C@@H]1CC[C@@H]2[C@H](COC[C@H](O)CN2Cc2ccccc2)O1)NCCCN1CCOCC1	-14
COCC(=O)N1C[C@@H]2[C@H](c3ccccc31)[C@@H](CO)N2Cc1ccccc1	-6
COCC(=O)N(C)C[C@@H]1[C@H](c2ccc(-c3ccccc3)cc2)[C@@H](CO)N1C(C)=O	-7
O=C(NC1Cc2ccccc2C1)[C@@H]1N[C@@H]2c3ccc(C4=CCCC4)c(=O)n3C[C@@H]2[C@H]1CO	3
C[C@@H](NC(=O)[C@H]1[C@H](CO)[C@H]2Cn3c(cccc3=O)[C@H]2N1CC1CC1)c1ccccc1	-4
CCCC(=O)Nc1ccc2c(c1)C(=O)N(C)C[C@@H](OC)[C@H](C)CN(Cc1cc(-c3ccccc3)on1)[C@H](C)CO2	1
O=C(Cc1ccccc1)N1C[C@H]2[C@@H](c3ccccc31)[C@H](CO)N2C(=O)c1ccc(F)cc1	96
C[C@@H]1CN([C@@H](C)CO)C(=O)CCCn2nncc2CO[C@H]1CN(C)Cc1ccc(C(=O)Nc2ccccc2N)cc1	0
OC[C@@H]1Nc2ccc(-c3ccccc3)cc2[C@H]2[C@@H]1CCN2Cc1ccccc1F	-2
Cc1cccc(-c2ccc([C@H]3[C@@H](CO)N4CCCCN(S(=O)(=O)c5cccc(C)c5)C[C@@H]34)cc2)c1	-7
O=C(CN1CCOCC1)N1CCCCN2[C@H](C1)[C@H](c1ccc(C#Cc3ccccc3)cc1)[C@@H]2CO	21
CCC(=O)Nc1ccc2c(c1)OC[C@H](C)N(Cc1ccccc1)C[C@@H](C)[C@H](OC)CN(C)C2=O	-7
CO[C@H]1CN(C)C(=O)c2ccc(NC(C)=O)cc2OC[C@@H](C)N(Cc2ccccc2C(=O)O)C[C@@H]1C	-7
C/C=C/c1ccc([C@H]2[C@@H](CO)N3CCCCN(S(=O)(=O)c4cccs4)C[C@H]23)cc1	5
CO[C@H]1CN(C)C(=O)c2ccc(NS(=O)(=O)c3cccc(C)c3)cc2OC[C@@H](C)NC[C@@H]1C	5
C[C@H]1CN([C@@H](C)CO)C(=O)c2cc(NC(=O)Nc3ccc(C(F)(F)F)cc3)ccc2O[C@@H]1CN(C)S(=O)(=O)c1cn(C)cn1	1
COc1ccc(S(=O)(=O)Nc2ccc3c(c2)C(=O)N([C@H](C)CO)C[C@H](C)[C@@H](CN(C)C(=O)Nc2cccc4ccccc24)O3)cc1	2
C[C@H](CO)N1C[C@H](C)[C@@H](CN(C)Cc2ccc(-c3ccccc3)cc2)Oc2ccc(N(C)C)cc2CC1=O	95
CN1c2ccc(-c3ccccc3F)cc2[C@H]2[C@H](CCN2C(=O)CN2CCOCC2)[C@@H]1CO	2

The list goes on; the last five above are carried over.
SMILES	Yeast UUG start
CO[C@H]1CN(C)C(=O)c2ccc(NS(=O)(=O)c3cccc(C)c3)cc2OC[C@@H](C)NC[C@@H]1C	5
C[C@H]1CN([C@@H](C)CO)C(=O)c2cc(NC(=O)Nc3ccc(C(F)(F)F)cc3)ccc2O[C@@H]1CN(C)S(=O)(=O)c1cn(C)cn1	1
COc1ccc(S(=O)(=O)Nc2ccc3c(c2)C(=O)N([C@H](C)CO)C[C@H](C)[C@@H](CN(C)C(=O)Nc2cccc4ccccc24)O3)cc1	2
C[C@H](CO)N1C[C@H](C)[C@@H](CN(C)Cc2ccc(-c3ccccc3)cc2)Oc2ccc(N(C)C)cc2CC1=O	95
CN1c2ccc(-c3ccccc3F)cc2[C@H]2[C@H](CCN2C(=O)CN2CCOCC2)[C@@H]1CO	2
Cc1cccc(S(=O)(=O)N2CCCCN3[C@H](CO)[C@H](c4ccc(C#C[C@@H](C)O)cc4)[C@@H]3C2)c1	6
CCC(C(=O)OCC(=O)N1CCN(c2ccc(OC)cc2)CC1)c1ccccc1 (stereo unspecified)	11
C[C@@H]1CN([C@@H](C)CO)C(=O)c2cc(NC(=O)Cc3ccccc3)ccc2O[C@H]1CN(C)S(=O)(=O)c1ccc(F)cc1	-4
CCCNC(=O)C[C@H]1CC[C@H]2[C@@H](COC[C@@H](O)CN2C(=O)Nc2c(C)noc2C)O1	3
N#Cc1cccc(-c2ccc3c(c2)[C@H]2[C@H](CCN2C(=O)c2ccc4c(c2)OCO4)[C@@H](CO)N3)c1	-17
C[C@H]1CN([C@@H](C)CO)C(=O)c2cc(NC(=O)Cn3cnnn3)ccc2O[C@H]1CN(C)C(=O)NC1CCCCC1	-2
O=C(Nc1ccccc1F)N1CCCCN2[C@H](C1)[C@@H](c1ccc(C#Cc3cccnc3)cc1)[C@@H]2CO	9
CNC[C@@H]1Oc2ccc(NC(=O)Nc3ccccc3)cc2CC(=O)N([C@H](C)CO)C[C@H]1C	-6
C[C@H](CO)N1C[C@H](C)[C@H](CN(C)Cc2ccc3c(c2)OCO3)Oc2ccc(NC(=O)Nc3ccccc3)cc2C1=O	-5
COc1ccc(S(=O)(=O)N(C)C[C@@H]2Oc3ccc(NC(=O)CCC(F)(F)F)cc3CC(=O)N([C@@H](C)CO)C[C@@H]2C)cc1	9
COc1ccc(-c2ccc3c(c2)[C@H]2[C@H](CCN2C(=O)Cc2cccnc2)[C@@H](CO)N3C)cc1	11
Cc1noc(C)c1NC(=O)N(C)C[C@@H]1Oc2ccc(NS(=O)(=O)c3cn(C)cn3)cc2C(=O)N([C@H](C)CO)C[C@H]1C	-9
CO[C@@H]1CN(C)C(=O)c2ccc(NS(=O)(=O)c3cn(C)cn3)cc2OC[C@@H](C)N(CCC(F)(F)F)C[C@H]1C	-12
OC[C@@H]1[C@H]2c3ccccc3NC[C@H]2N1CC1CCCCC1	-10
Cc1noc(C)c1NC(=O)Nc1ccc2c(c1)CC(=O)N([C@@H](C)CO)C[C@H](C)[C@@H](CN(C)Cc1ccncc1)O2	-1
CC=Cc1ccc2n(c1=O)C[C@@H]1[C@@H](CO)[C@H](C(=O)N3CCc4ccccc4C3)[C@H]2N1Cc1ccccc1 (mixture of isomers)	16
CCC(=O)Nc1ccc2c(c1)OC[C@@H](C)N(Cc1cncnc1)C[C@H](C)[C@H](OC)CN(C)C2=O	-15
CN1c2ccc(-c3ccc(F)cc3)cc2[C@@H]2[C@@H](CCN2C(=O)Nc2cc(F)ccc2F)[C@@H]1CO	-7
COc1ccccc1CN1[C@@H]2Cn3c(ccc(C4=CCCCC4)c3=O)[C@H]1[C@@H](C(=O)N(C)C)[C@@H]2CO	20
CO[C@H]1CN(C)C(=O)c2cc(NC(=O)C3CC3)ccc2OC[C@@H](C)N(Cc2nccs2)C[C@H]1C	-5
CNC[C@@H]1Oc2ccc(NS(=O)(=O)c3cccs3)cc2C(=O)N([C@@H](C)CO)C[C@H]1C	-9
COc1ccccc1C#Cc1ccc([C@@H]2[C@@H](CO)N3CCCCN(S(C)(=O)=O)C[C@H]23)cc1	-4
CN(C[C@@H]1[C@@H](c2ccccc2)[C@H](CO)N1CC1CC1)C(=O)c1ccccc1	7
Cc1noc(C)c1NC(=O)N(C)C[C@@H]1Oc2c(NC(=O)c3ccc(-c4nccs4)cc3)cccc2C(=O)N([C@@H](C)CO)C[C@H]1C	11
O=C(C1CC1)N1CCCCN2[C@H](CO)[C@H](c3ccc(C#CC4(O)CCCC4)cc3)[C@H]2C1	25
CCCC#Cc1ccc([C@@H]2[C@@H](CO)N3CCCCN(C(=O)c4ccc5c(c4)OCO5)C[C@@H]23)cc1	1
CO[C@@H]1CN(C)C(=O)c2ccc(NC(=O)c3cc(C)on3)cc2OC[C@@H](C)N(C(=O)C2CC2)C[C@H]1C	-5
C[C@@H]1CN([C@H](C)CO)C(=O)c2cc(NC(=O)Nc3cccc4ccccc34)ccc2O[C@H]1CN(C)Cc1ccc(C(=O)O)cc1	-7
O=C(C[C@@H]1C[C@H]2c3cc(NS(=O)(=O)c4ccccc4)ccc3O[C@H]2[C@H](CO)O1)NC1CCCC1	5
C[C@H](CO)N1C[C@H](C)[C@H](CN(C)C(=O)NC2CCCCC2)Oc2ccc(NC(=O)CCN3CCOCC3)cc2C1=O	10

Among those listed so far, these contain a CF3 group.
SMILES	Yeast UUG start
C[C@H]1CN([C@@H](C)CO)C(=O)c2cc(NC(=O)Nc3ccc(C(F)(F)F)cc3)ccc2O[C@@H]1CN(C)S(=O)(=O)c1cn(C)cn1	1
COc1ccc(S(=O)(=O)N(C)C[C@@H]2Oc3ccc(NC(=O)CCC(F)(F)F)cc3CC(=O)N([C@@H](C)CO)C[C@@H]2C)cc1	9
CO[C@@H]1CN(C)C(=O)c2ccc(NS(=O)(=O)c3cn(C)cn3)cc2OC[C@@H](C)N(CCC(F)(F)F)C[C@H]1C	-12

The list goes on.
SMILES	Yeast UUG start
CO[C@H]1CN(C)C(=O)c2ccc(NS(=O)(=O)c3ccc(C)cc3)cc2OC[C@H](C)NC[C@H]1C	-1
O=C([C@@H]1[C@@H](CO)[C@@H]2Cn3c(ccc(-c4cccnc4)c3=O)[C@H]1N2Cc1cccnc1)N1CCOCC1	-22
CO[C@@H]1CN(C)C(=O)c2ccc(NS(=O)(=O)c3ccc(Cl)cc3)cc2OC[C@H](C)N(C(=O)NC(C)C)C[C@@H]1C	29
C[C@@H]1CN([C@H](C)CO)C(=O)CCCn2nncc2CO[C@H]1CN(C)C(=O)Nc1ccccc1F	-2
O=C(CN1CCOCC1)N1CCCCN2[C@H](CO)[C@H](c3ccc(-c4ccccc4F)cc3)[C@@H]2C1	-13
COc1ccc(NC(=O)N(C)C[C@@H]2Oc3c(NC(=O)Nc4cccc5ccccc45)cccc3C(=O)N([C@@H](C)CO)C[C@H]2C)cc1	2
CO[C@H]1CN(C)C(=O)c2cc(NC(=O)C3CCCC3)ccc2OC[C@@H](C)N(CCC(F)(F)F)C[C@H]1C	-12
O=C(C[C@H]1CC[C@H]2[C@@H](COC[C@H](O)CN2S(=O)(=O)c2ccc(Cl)cc2)O1)N[C@@H]1CCN(Cc2ccccc2)C1	3
Cc1ccc(OC(=O)N(C)C[C@H]2OCc3ccccc3-c3ccccc3C(=O)N([C@@H](C)CO)C[C@@H]2C)cc1	4
COc1cccc(C(=O)Nc2ccc3c(c2)C(=O)N(C)[C@H]2CC[C@@H](CC(=O)N[C@@H](C)c4ccccc4)O[C@@H]2CO3)c1	14
C[C@@H]1CN([C@H](C)CO)C(=O)c2cc(NC(=O)c3ccncc3)ccc2O[C@@H]1CN(C)C(=O)Nc1ccc(F)cc1	0

This is a subset; the hit share may differ from the screen's.
